WNV NS2B-NS3 inh: inhibitors of WNV NS2B-NS3 protease, primary screen, biochemical, fluorogenic substrate | fluorogenic substrate Ex360/Em465; active compounds read low | Genome polyprotein (West Nile virus), P06935 | AID 577, 2007 | actives 0.18% (n = 65,000) | z-score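 (tested at a level between 10 and 100 µM)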;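 active = z-score at -3 or under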;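 also: score is relative to mean and spread of the compound wells of a plate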
Target sequence (P06935 1371-1501 limits assumed): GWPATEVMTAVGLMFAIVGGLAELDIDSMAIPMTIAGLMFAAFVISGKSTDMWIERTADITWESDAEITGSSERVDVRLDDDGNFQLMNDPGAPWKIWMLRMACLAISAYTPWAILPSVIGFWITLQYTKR
Target sequence (P06935 1502-1679 limits assumed): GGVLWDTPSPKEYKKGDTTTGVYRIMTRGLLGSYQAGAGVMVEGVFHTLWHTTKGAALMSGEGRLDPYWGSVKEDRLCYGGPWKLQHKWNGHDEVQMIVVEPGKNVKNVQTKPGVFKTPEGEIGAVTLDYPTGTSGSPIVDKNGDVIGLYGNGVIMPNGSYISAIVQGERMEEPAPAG
Hsc70 ATP site: Hsc70 inhibitors, probe displacement, primary screen, biochemical, fluorescence polarization (AID 568) | Heat shock cognate 71 kDa protein (Homo sapiens) | Hsc70 fluorescence polarization, probe displacement; higher % means a stronger effect; strong numbers were not always called active | one-dose displacement, % at 20 µM; IC50 in µM for titrated hits | 83,000 tested, under 10 active;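 active = displacement above 50% without optical interference and an IC50 on retest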;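 also: ATPase domain with a fluorescein-tagged ATP probe; 0% = vehicle and 100% = excess ADP; read after one hour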
MT1-MMP reporter: inhibitors of MT1-MMP promoter transcription, cell-based, luciferase reporter, luminescence (AID 618) | MT1-MMP promoter luciferase reporter cells, luminescence | calls from a first round at 10 µM; hits with a dose series show EC50 in µM | actives 0.62% (n = 87,000);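 active = over half of the reporter light lost at 10 µM or EC50 under 50 µM; inactive = the rest and hits that failed the dose series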;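 also: actives suppress MT1-MMP promoter-driven transcription so potencies describe inhibitors; HT1080 fibrosarcoma cells; overnight exposure; toxic or luciferase-blocking compounds were not removed from the actives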
* = called active by the depositor; i = inactive; / = no result given.

Structure,WNV NS2B-NS3 inh,Hsc70 ATP site,MT1-MMP reporter
Cc1cc(NC(=O)c2cc(-c3ccccc3)on2)n(-c2ccccc2)n1,0.16,2.6%,i
O=C(Oc1ccc2c(c1)OCO2)c1ccc(Br)c(S(=O)(=O)N2CCOCC2)c1,-1.6,-2.0%,i
NCC12CC3CC(CC(O)(C3)C1)C2,/,-0.4%,i
COC(=O)c1ccc(S(=O)(=O)NCc2cccc(OC)c2)n1C,0.41,3.2%,i
CCOc1ccc2[nH]c(=O)c(CN(CCOC)C(=O)N3CCOCC3)cc2c1,0.36,-0.9%,i
COc1ccc(S(=O)(=O)N2CCC(C(=O)N3CCc4ccccc4C3)CC2)cc1C,/,3.6%,i
Nc1nnc(SCC(=O)c2ccc3ccccc3c2)s1,/,-0.3%,i
COC(=O)CSc1nc2cc3c(cc2cc1C#N)OCO3,-1.1,-10%,i
CC(C)c1ccccc1-n1c(SCC(=O)N2CCN(c3ccccc3)CC2)nnc1-c1cccnc1,/,3.5%,i
CC(C)C(=O)N=c1sc2cc(F)cc(F)c2n1C,0.04,-1.3%,i
Cc1ccoc1C(=O)Nc1ccc(CC(=O)O)cc1,/,-0.1%,0.42µM*
Cc1ccc(-c2nc(CSCC(=O)NCCN3CCN(Cc4ccccc4)CC3)c(C)o2)cc1,0.42,7.7%,i

The results go on.
Structure,WNV NS2B-NS3 inh,Hsc70 ATP site,MT1-MMP reporter
CCOC(=O)C1=C(C)NC(=O)NC1c1cccnc1 (stereo unspecified),-1.3,5.3%,i
O=C(NCc1ccc(Cl)cc1)c1cc(=O)nc2sc(-c3ccccc3)nn12,/,3.0%,i
CCN1CCN(Cc2nc3c(c(=O)n(C)c(=O)n3C)n2C(C)C(C)=O)CC1 (stereo unspecified),-0.36,-2.8%,i
Cc1cccc(-c2nc(CN3CCCC(C(=O)NC4CCCC4)C3)c(C)o2)c1 (stereo unspecified),0.76,-2.0%,i
COc1ccccc1OCCCc1c(C)n[nH]c1C,-0.62,0.8%,i
CS(=O)(=O)N(CC(=O)NC1CCCCC1)Cc1ccc(Cl)cc1,/,0.6%,i
CCn1nnc(NC(=O)COc2ccc(C3CCCCC3)cc2)n1,-2.2,-3.9%,i
CC(NC(=O)Cc1cccs1)C(c1cccs1)N1CCOCC1 (stereo unspecified),-0.86,-3.3%,i
O=S(=O)(c1ccc(S(=O)(=O)N(Cc2ccccc2)Cc2ccco2)cc1)N1CCCC1,/,-5.5%,i
COc1ccc(C(=O)NCC(c2cccnc2)N2CCN(c3ccc(F)cc3)CC2)cc1OC (stereo unspecified),-0.43,0.7%,i
COc1oc(-c2ccccc2)nc1C(F)(F)F,0.65,3.7%,i
CCC(C)N1CCCC1C(=O)Nc1c(C)cc(C)cc1C (stereo unspecified),/,-0.6%,i

Other structures.
Structure,WNV NS2B-NS3 inh,Hsc70 ATP site,MT1-MMP reporter
CC(C)CC(OC(=O)c1nsc(Cl)c1Cl)C(=O)NCc1cccs1 (stereo unspecified),/,-2.2%,i
O=C(Cn1nnc(-c2ccccc2)n1)N1CCN(S(=O)(=O)c2ccc(Cl)cc2)CC1,0.14,-4.1%,i
Cc1ccc(S(=O)(=O)N(CC(=O)N2CCC(C(N)=O)CC2)c2cccc(C(F)(F)F)c2)cc1,0.7,-0.9%,i
COCCCNC(=O)c1c(N)n(-c2ccc3c(c2)OCO3)c2nc3ccccc3nc12,-0.33,-1.1%,i
O=C(c1cn[nH]c1)c1cc(F)ccc1O,-1.4,-1.9%,i
CCCCNC(=O)c1cnc2n(c1=O)CCS2,-0.72,-8.3%,i
O=C(O)c1ccc(C(=O)O)c(C(=O)c2ccccc2)c1,/,1.2%,i
COc1ccc(C2NC(=O)NC(C)=C2C(=O)Nc2cc(C)ccc2C)cc1OC (stereo unspecified),-1.1,0.4%,i
COc1ccc(OC(C)C(=O)N2CCC(C)CC2)cc1 (stereo unspecified),/,6.8%,i
O=c1[nH]c(CN2CCN(Cc3ccccc3)CC2)nc2sc3c(c12)CCC3,-0.38,-4.8%,i
CSc1ncccc1C(=O)OCc1ccccc1F,0.04,9.4%,i
Brc1ccc(OCc2nc(-c3ccccn3)n[nH]2)cc1,/,-3.8%,i

(list continues)
Structure,WNV NS2B-NS3 inh,Hsc70 ATP site,MT1-MMP reporter
Cc1[nH]nc(-c2ccc(O)cc2O)c1Oc1ccccc1,0.04,-4.0%,i
O=P(C1=C(N2CCOCC2)/C(=C\c2ccccc2)CC1)(N1CCOCC1)N1CCOCC1,0.0031,5.0%,i
CCOC(=O)c1sc(NC(=O)COC(=O)c2ccco2)nc1C,-0.32,6.8%,i
Cn1c(=O)c2c(nc(N3CCOCC3)n2C)n(C)c1=O,-0.52,-1.1%,i
CCCn1c(OC)nc2c1c(=O)n(C)c(=O)n2C,-0.01,5.1%,i
Cc1ccnc(NC(=O)c2ccccc2NC(=O)C(C)(C)C)c1,/,-1.2%,i
COC(=O)c1ccc(NC(=O)CN2CCN(S(=O)(=O)c3cc(Cl)ccc3OC)CC2)cc1,-1.3,1.5%,i
O=c1[nH]cnc2c1oc1ccccc12,-0.87,-6.6%,i
Cc1sc2nc(C3CC3)nc(N3CCN(S(=O)(=O)c4ccc(F)cc4)CC3)c2c1C,-0.49,-16%,i
Cc1cc(C)nc(SCNC(=O)c2ccccc2)n1,0.63,-0.6%,i
Cc1cc(C(=O)O)c(CSc2ncn[nH]2)o1,-0.1,0.9%,i
O=C(NCc1cccnc1)C1c2ccccc2C(=O)N1C1CCCCCCC1 (stereo unspecified),0.1,-1.0%,i

The list goes on:
Structure,WNV NS2B-NS3 inh,Hsc70 ATP site,MT1-MMP reporter
O=CN1Cc2[nH]c3ccccc3c2N(c2ccc(Cl)cc2)C1=O,-1.5,6.7%,i
O=C(Nc1ccc(NC(=O)C23CC4CC(CC(C4)C2)C3)cn1)c1ccco1,0.08,7.2%,i
COc1ccc(CN(CCCN2CCOCC2)C(=O)Nc2cccc(Cl)c2)cc1OC,-0.41,-11%,i
COc1ccc(C(=O)N(Cc2ccco2)C(C(=O)NC2CCCC2)c2ccc(O)cc2)cc1OC (stereo unspecified),-0.34,-3.1%,i
Cc1cc(NC(=O)CSc2nnc3c4c(C)c(C)sc4ncn23)no1,-1.8,2.5%,i
N#CCCCSc1nnc(Cc2ccc3c(c2)OCO3)o1,/,-2.6%,i
Cc1nn(Cc2ccc(Cl)cc2)c(C)c1NC(=O)C1CC=CCC1C(=O)O (stereo unspecified),1.1,0.3%,i
O=C(NC1(C(F)(F)F)C(=O)Nc2c1c(=O)[nH]c(=O)n2Cc1ccccc1)c1ccc(Cl)cc1Cl (stereo unspecified),/,3.5%,i
N#CC1=C(N)C(C#N)(C#N)C2(C(=O)Nc3ccccc32)C2CCCC=C12 (stereo unspecified),1.1,2.0%,i
c1ccc(COc2ccc(OCCCNC3CCCC3)cc2)cc1,/,2.5%,i
O=C(COC(=O)c1cccc(S(=O)(=O)N2CCc3ccccc32)c1)NC1CCS(=O)(=O)C1 (stereo unspecified),-1.5,-1.3%,i
CCOc1cc(C2C(C(=O)OC)=CN(C3CCCC3)C=C2C(=O)OC)cc(Br)c1O,0.06,1.3%,i

An excerpt of these results, with values under each structure:
Below each compound: WNV NS2B-NS3 inh	Hsc70 ATP site	MT1-MMP reporter
Cc1cc(C(=O)O)c(CSc2ncn[nH]2)o1
 : -0.1	0.9%	i
CC(NC(=O)Cc1cccs1)C(c1cccs1)N1CCOCC1 (stereo unspecified)
 : -0.86	-3.3%	i
Cc1cccc(-c2nc(CN3CCCC(C(=O)NC4CCCC4)C3)c(C)o2)c1 (stereo unspecified)
 : 0.76	-2.0%	i
Cc1ccc(S(=O)(=O)N(CC(=O)N2CCC(C(N)=O)CC2)c2cccc(C(F)(F)F)c2)cc1
 : 0.7	-0.9%	i
CCOc1ccc2[nH]c(=O)c(CN(CCOC)C(=O)N3CCOCC3)cc2c1
 : 0.36	-0.9%	i

Other results
Structure,WNV NS2B-NS3 inh,Hsc70 ATP site,MT1-MMP reporter
Cc1nn(CC(=O)Nc2ccc3c(c2)nc2n3CCOC2)c(=O)c2ccccc12,/,-2.4%,i
CCOC(=O)c1sc(=S)n(CC)c1NC(=O)C1CC1,1.1,-2.6%,i
Nn1cnnc1SCC(=O)Nc1ccc2c(c1)OCCO2,1.2,-0.7%,i
O=C(CSCc1ccc(Cl)cc1)NCc1ccc2c(c1)OCO2,/,4.5%,i
O=C(NCc1cccs1)C1CCN(c2nccs2)CC1,0.6,-3.1%,i
O=C(CSc1nnc(Cc2cccs2)n1Cc1ccco1)Nc1ccc(Cl)cc1Cl,1.6,-2.5%,i
O=C(Cc1ccc(Cl)cc1)NCCN1CCCC1,0.78,-1.2%,i
CCc1nnc(NC(=O)C2CC(=O)N(c3ccc(C)cc3)C2)s1 (stereo unspecified),0.7,-2.6%,i
c1ccc2c(c1)CCN(c1ncnc3nc[nH]c13)C2,-1.7,1.0%,i
O=C(N1CCCCCC1)N1CCN(C(=O)N2CCCCC2)CC1,-1.3,3.5%,i
O=C(Nc1nnc(CCc2ccccc2)s1)c1cccs1,0.37,5.0%,i
N#CC1=C(O)C(c2ccccc2)n2c1nc(=O)c1ccccc12 (stereo unspecified),1.1,-14%,i

(more compounds)
Structure,WNV NS2B-NS3 inh,Hsc70 ATP site,MT1-MMP reporter
Cc1ccc(C2NC(=S)NC3=C2N2CCC3CC2)cc1 (stereo unspecified),/,1.7%,i
N#C/C(=C\c1ccc[nH]1)S(=O)(=O)c1ccccc1,-0.85,-1.3%,i
Cc1sc(NC(=O)CCCC(=O)O)c(C#N)c1C,-0.21,-13%,i
CC(C)(C)c1ccc(-c2nnc(SCCN3C(=O)c4ccccc4C3=O)o2)cc1,/,-4.1%,i
CCOC(=O)Cc1csc(NC(=O)c2ccoc2C)n1,0.06,1.9%,i
CCOC(=O)CSc1nnc(CNC(=O)Cc2ccccc2)n1-c1ccccc1OC,0.79,0.6%,i
COCC(=O)NCCc1nc(-c2ccccc2)cs1,-0.26,-0.7%,i
CC1(C)CC(=O)C2=C(C1)N(CCN1CCOCC1)C1=C(C(=O)CC(C)(C)C1)C2c1cccc(Cl)c1,0.36,0.0%,i
Cc1ccc(S(=O)(=O)NCC(=O)OCC(=O)N2CCc3ccccc32)cc1,0.75,1.5%,i
O=c1[nH]c2ccccc2n1CCCSc1cnc2ccccc2n1,-0.32,0.0%,i
O=C1CC(C(=O)NCc2ccccc2)C2(CCCC2)O1 (stereo unspecified),-0.12,2.5%,i
Oc1ccccc1CNc1ncc(Br)cc1Br,/,-1.3%,i

Single records, as listed above.
`O=S(=O)(c1ccc(S(=O)(=O)N(Cc2ccccc2)Cc2ccco2)cc1)N1CCCC1` is listed with WNV NS2B-NS3 inh: /; Hsc70 ATP site: -5.5%; MT1-MMP reporter: i
`CCc1nnc(NC(=O)C2CC(=O)N(c3ccc(C)cc3)C2)s1` (stereo unspecified) is listed with WNV NS2B-NS3 inh: 0.7; Hsc70 ATP site: -2.6%; MT1-MMP reporter: i

Remaining list, next part
Structure,WNV NS2B-NS3 inh,Hsc70 ATP site,MT1-MMP reporter
COc1ccc(N=C(N(C)C)P(=O)(N(C)C)N(C)C)cc1,-0.78,-5.4%,i
Cc1ccc(CN2C(=O)CCC2C(=O)NCCCN2CCC(C)CC2)cc1 (stereo unspecified),-1.2,-7.2%,i
CCOC(=O)Nc1ccc2c(c1)nc(CN1CCOCC1)n2C,-0.42,1.9%,i
O=C(OCC(=O)N1CCN(C(=O)c2ccco2)CC1)c1ccccc1C(=O)c1ccc(Cl)cc1,-0.03,3.8%,i
C1CN(CC23CC4CC(CC(C4)C2)C3)CCO1,/,-0.6%,i
COc1ccc(-c2nn3c(-c4ccccn4)nnc3s2)cc1OC,-0.79,0.6%,i
COC(=O)[C@H](C)NC(=O)NC1CCN(Cc2ccccc2)CC1,/,-4.6%,i
Clc1ccc2[nH]c3c(NCCN4CCOCC4)ncnc3c2c1,-0.34,-0.2%,i
Cc1noc(C)c1COc1ccc(C(=O)OCC(=O)c2ccc3c(c2)OCCO3)cc1,0.96,-2.4%,i
CCOC(=O)C(C(=O)OCC)C1CS(=O)(=O)CC1C(C(=O)OCC)C(=O)OCC (stereo unspecified),/,3.0%,i
Cc1c(C(=O)Nc2ccncc2)sc2nc(-c3ccccc3)cn12,-0.41,7.0%,i
CCOC(=O)C1=C(C)OC(N)=C(C#N)C1c1cc2c(cc1Br)OCO2 (stereo unspecified),-0.2,-1.0%,i

The listing continues:
Structure,WNV NS2B-NS3 inh,Hsc70 ATP site,MT1-MMP reporter
Cc1cc(NC(=O)c2noc3c2CCCC3)nn1Cc1ccc(Cl)cc1,-1,-0.5%,i
CCOc1ccccc1N1CC(C(=O)N2CCc3ccccc32)CC1=O (stereo unspecified),/,3.5%,i
Cc1cc(C)c2c(n1)SCC(=O)N2CC(=O)NCCC1=CCCCC1,-1.1,3.5%,i
O=C1CSC(=Nc2cc(Cl)ccc2Cl)N1,2,8.0%,i
O=[N+]([O-])c1ccc(NC(=S)N/C(=N/CS(=O)(=O)c2ccccc2)c2ccccc2)cc1,/,-1.4%,i
CCN=c1sc2ccccc2n1CC(O)COc1ccccc1 (stereo unspecified),/,2.7%,i
COc1ccccc1OCCn1c(CO)nc2ccccc21,-0.57,2.2%,i
O=C(NCCCN1CCOCC1)c1cc(-c2ccc(Cl)cc2)on1,-0.21,-0.4%,i
CCN(CC)C(=O)c1cc2c(=O)oc3ccccc3c2s1,/,-2.6%,i
COC(=O)c1cc(NC(=O)c2c(Cl)nc3sccn23)cc(C(=O)OC)c1,-1.1,0.2%,i
Cc1ccc(S(=O)(=O)Nc2nncs2)cc1,-0.68,-2.7%,i

From PubChem
